Mtb betalactam – beta-lactam sensitization of Mtb H37Rv; 330,000 tested, 0.27% active; M. tuberculosis H37Rv growth with meropenem, percent inhibition; hits of this screen are not shown here; AID 434955; inhibition, % at 25 µM;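 active = about 74% or more and at least 40 points above the plate without the antibiotic, then above 30% in a dose series; inconclusive = first-round hits that could not be retested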;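 also: growth measured after seven days incubation then overnight dye step; 0% = bacteria only wells and 100% = bacteria with antibiotic; twin plates without the antibiotic show which effects depend on it; some results filed as inactive read as strong as hits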
Mtb growth – M. tuberculosis H37Rv growth inhibitors, H37Rv strain (AID 1626). M. tuberculosis H37Rv growth inhibition; higher % means a stronger effect. one-dose inhibition, % at 10 µM; IC50 in µM for titrated hits. 220,000 tested, 0.95% active;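 active = confirmed in a dose series; inconclusive = inhibition above 80% but not taken into the dose series; inactive = below 80% or under 30% at every dose of the series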;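 also: bacteria incubated seven days before Alamar blue readout; 0% = bacteria only wells and 100% = bacteria with antibiotic wells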
YopH inh – blocks Yersinia enterocolitica YopH tyrosine phosphatase | fluorescence Ex485/Em525 | inhibition, %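 (about 10 µM by stock and volumes)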 | 140,000 tested, 0.16% active | AID 898;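 active = inhibition of 50% or more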;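 also: controls were vehicle for no effect and minimum signal wells for full effect; inactives centre near -20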
RecA splice inh – inhibitors of M. tuberculosis RecA intein splicing; P9WHJ3; cell-free RecA intein splicing, fluorescence; inhibition, %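 (about 9 µM by stock and volumes)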; 290,000 tested, 0.75% active; in the data active = inhibition above about 30%; inconclusive = no clear call, values can overlap the other calls;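 also: 0% = vehicle wells and 100% = reference inhibitor control wells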
Target sequence (P9WHJ3 whole entry, looked up, canonical isoform): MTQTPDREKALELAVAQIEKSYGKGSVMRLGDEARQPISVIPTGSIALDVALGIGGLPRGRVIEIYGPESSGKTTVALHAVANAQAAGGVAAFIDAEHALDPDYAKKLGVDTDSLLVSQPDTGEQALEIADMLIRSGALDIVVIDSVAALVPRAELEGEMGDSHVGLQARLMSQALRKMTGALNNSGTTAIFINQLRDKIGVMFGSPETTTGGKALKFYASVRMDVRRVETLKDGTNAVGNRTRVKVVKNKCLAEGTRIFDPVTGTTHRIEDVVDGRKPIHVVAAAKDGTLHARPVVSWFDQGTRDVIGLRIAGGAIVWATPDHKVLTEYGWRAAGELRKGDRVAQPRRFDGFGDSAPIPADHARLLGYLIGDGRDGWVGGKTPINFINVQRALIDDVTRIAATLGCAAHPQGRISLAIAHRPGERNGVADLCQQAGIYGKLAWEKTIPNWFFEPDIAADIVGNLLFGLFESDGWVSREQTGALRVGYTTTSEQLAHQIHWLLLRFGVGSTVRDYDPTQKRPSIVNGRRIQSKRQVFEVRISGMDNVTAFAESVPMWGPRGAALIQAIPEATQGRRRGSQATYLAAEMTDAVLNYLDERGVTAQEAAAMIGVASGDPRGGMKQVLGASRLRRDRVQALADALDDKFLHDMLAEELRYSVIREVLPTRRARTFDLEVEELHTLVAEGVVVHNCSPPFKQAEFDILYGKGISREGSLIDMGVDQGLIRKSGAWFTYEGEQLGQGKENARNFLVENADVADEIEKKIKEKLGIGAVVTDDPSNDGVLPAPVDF
Arbovirus anti – antivirals against arbovirus infection | AID 1251 | 200,000 tested, 0.37% active | arbovirus infection cell-based antiviral screen | inhibition, % at 10 µM;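 active = inhibition from about 30%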;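 also: bluetongue infection of BSR cells; cell survival read as ATP light after 72 h; 0% = infected wells without compound and 100% = uninfected wells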
Arbovirus anti repeat – second read-out of Arbovirus anti, no call of its own (marks repeat the call); inhibition, %; measured here: 10K subset replicate screen; many hits read low in the repeat;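 first of two repeat runs on a subset; 0% = infected and 100% = uninfected wells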
Active calls of the source: *.

`c1ccc2c(c1)c1ccccc1n1c(-c3ccc4c(c3)OCO4)nnc21` gave Mtb betalactam 2, Mtb growth 16%, YopH inh -33, RecA splice inh -0.2 and Arbovirus anti -9.
O=C(NCc1ccc2c(c1)OCO2)c1cccc(Cl)c1 was read as Mtb betalactam 17, Mtb growth 9%, YopH inh -32, RecA splice inh 0.4 and Arbovirus anti -4.
For O/N=C1/C2C3CC4C5C3C1C5C1(OCCO1)C42 (stereo not given) the results were Mtb betalactam -3, Mtb growth -4%, YopH inh -26, RecA splice inh -0.4, Arbovirus anti -5 and Arbovirus anti repeat 2.
O=C1CSc2ccc(C(=O)NCCC3=CCCCC3)cc2N1 was read as Mtb betalactam inconclusive, Mtb growth -2%, YopH inh -4 and Arbovirus anti 6.
COc1ccc(OC)c(NC(=O)C2CCCN2C(=O)OCc2ccccc2)c1 (stereo not given) was read as Mtb betalactam 1, Mtb growth -3%, YopH inh -14, RecA splice inh 0.2 and Arbovirus anti -8.
`O=C(/C=C/c1cccc(Br)c1)Nc1nn[nH]n1` gave Mtb betalactam 2 and RecA splice inh -1.9.
`CN1CCN(Cc2c(F)cccc2Cl)CC1` gave Mtb betalactam -6 and RecA splice inh 2.6.
Screening CC(=O)N1CCc2cc(S(=O)(=O)CCC(=O)N3CCN(c4ccccc4)CC3)ccc21 returned Mtb betalactam 3 and RecA splice inh 1.8.
For CCc1nnc(NC(=O)c2c(-c3ccccc3)noc2C)s1 the results were Mtb betalactam 6 and RecA splice inh -1.5.
Screening Cc1cccnc1-n1c(C)nc2ccccc2c1=O returned Mtb betalactam -21, Mtb growth 10%, YopH inh -8, RecA splice inh -1.9 and Arbovirus anti 1.
CC(C)NC(=O)CCCN1C(=O)c2ccccc2Sc2ncccc21 was read as Mtb betalactam 3 and RecA splice inh 0.2.
Cc1ccc(NC(=S)N2CCN(CCN3C(=O)c4cccc5cccc(c45)C3=O)CC2)cc1 was read as Mtb betalactam -16, Mtb growth 0%, YopH inh -41, RecA splice inh -0.4 and Arbovirus anti 4.
For O=C(O)C1CC(c2ccc(F)cc2)=NO1 (stereo not given) the results were Mtb betalactam 2, Mtb growth 1%, YopH inh -18, RecA splice inh -2.5 and Arbovirus anti -2.
For CCOC(=O)C1(Cc2ccccc2)CCCN(Cc2ccc(OCCO)cc2)C1 (stereo not given) the results were Mtb betalactam -5, Mtb growth 3%, RecA splice inh 0.3 and Arbovirus anti 2.
Screening CC(=O)c1cccc(NC(=O)NC(C)C2CCCO2)c1 (stereo not given) returned Mtb betalactam 6, Mtb growth -8%, YopH inh 13, RecA splice inh -0.8 and Arbovirus anti -3.
Screening CN(C)/C=C/C(=O)c1cnc2n(c1=O)CCS2 returned Mtb betalactam 1, Mtb growth -6%, RecA splice inh 0.2 and Arbovirus anti 5.
CCOc1ccc(N2C(=O)CN(C)C2=S)cc1 was read as Mtb betalactam 71, Mtb growth inconclusive, YopH inh -19, RecA splice inh -2.6 and Arbovirus anti -5.
Cc1ccc2c(c1)C(=O)OC1(O)C3C4C=CC(C4)C3C(=O)N21 (stereo not given) was read as Mtb betalactam -3 and RecA splice inh 0.7.
Screening O=C(COc1ccccc1F)N1CCCc2ccccc21 returned Mtb betalactam -6 and RecA splice inh -3.8.
CC(=O)N1CCCc2cc(S(=O)(=O)Nc3ccc4c(c3)OCO4)ccc21 was read as Mtb betalactam -1, Mtb growth -8%, RecA splice inh 9.5 and Arbovirus anti 0.
For O=C(Cn1c(=O)cnc2ccccc21)N1CCCc2ccccc21 the results were Mtb betalactam 7 and RecA splice inh 1.2.
Screening CC(C)c1nnc(NC(=O)CCS(=O)(=O)c2nc(-c3cccs3)cc(C(F)(F)F)n2)s1 returned Mtb betalactam 7, Mtb growth -5%, YopH inh -44, RecA splice inh 32* and Arbovirus anti -1.
Screening CCOc1ccc(Cl)cc1S(=O)(=O)N1CCC(C(=O)NCc2ccncc2)CC1 returned Mtb betalactam -3 and RecA splice inh -3.7.
For O=C(NC1CCCC1)C1CCCN1C(=O)Nc1ccccc1Cl (stereo not given) the results were Mtb betalactam -2, YopH inh -21, RecA splice inh -7.2 and Arbovirus anti 4.
For O=C(O)c1nn(CCOc2ccccc2F)c(=O)c2ccccc12 the results were Mtb betalactam 0 and RecA splice inh -3.2.
For NS(=O)(=O)c1ccc2nc(NC(=O)C3=COCCO3)sc2c1 the results were Mtb betalactam 5 and RecA splice inh -3.7.
`Cc1nn(-c2nc(-c3ccco3)cc(C(F)(F)F)n2)c(C)c1Cl` gave Mtb betalactam 11, Mtb growth -1%, YopH inh -1 and Arbovirus anti 3.
Screening O=C(O)CC(NC(=O)C1c2ccccc2Oc2ccccc21)c1ccc(Cl)cc1 (stereo not given) returned Mtb betalactam -9, Mtb growth -8%, YopH inh -6, RecA splice inh -3.5 and Arbovirus anti 4.
`CCOCC(=O)OCC(=O)Nc1cc(OC)c([N+](=O)[O-])cc1C` gave Mtb betalactam -9, Mtb growth 4%, RecA splice inh 0.8 and Arbovirus anti 23.
`CCOC(=O)N1CCN(C(=O)CN(Cc2ccc(Cl)cc2)S(C)(=O)=O)CC1` gave Mtb betalactam 4, Mtb growth -11%, YopH inh -11, RecA splice inh 11 and Arbovirus anti 8.
Screening COCCNc1nc2ccccc2nc1NS(=O)(=O)c1ccc(C)cc1C returned Mtb betalactam -8, Mtb growth 7%, YopH inh -10, RecA splice inh -3.0 and Arbovirus anti 3.
Screening CC(C)(C)OC(=O)NCCCC1=CC2=CC(=O)C(C)(OC(=O)C3CCCC3)C(=O)C2=CO1 (stereo not given) returned Mtb betalactam 1, Mtb growth -9% and RecA splice inh -9.7.
Screening COc1ccccc1NC(=O)C(C)Nc1ccc(C)c(Cl)c1 (stereo not given) returned Mtb betalactam -1, Mtb growth -2%, RecA splice inh 2.8 and Arbovirus anti -5.
Screening CCn1c(SCC(=O)Nc2ccccc2C(=O)OC)nnc1-c1cccc(C)c1 returned Mtb betalactam 0, Mtb growth -2%, YopH inh 11, RecA splice inh -0.7 and Arbovirus anti 10.
Screening NC(=O)Cc1ccc2c(c1)[nH]c1ccccc12 returned Mtb betalactam -4, Mtb growth 15% and RecA splice inh -0.8.
`COc1ccccc1C(=O)N/N=C(\C)c1cccnc1` gave Mtb betalactam -6 and RecA splice inh 0.6.
`CC(C)CC1C(C#N)=C(N)Oc2c1c(=O)oc1ccccc21` (stereo not given) gave Mtb betalactam 0, Mtb growth -4%, YopH inh 12, RecA splice inh -0.6, Arbovirus anti 3 and Arbovirus anti repeat 5.
For COC(=O)c1ccc(S(=O)(=O)N2CCc3ccccc3C2)cc1 the results were Mtb betalactam -5 and RecA splice inh -1.8.
Screening CS/C(=N\N(C)C(N)=O)c1ccccc1 returned Mtb betalactam -4, Mtb growth 10%, YopH inh -8, RecA splice inh -0.3 and Arbovirus anti 21.
For COc1ccc(N2CCN(CCNC(=O)Nc3ccc(C)cc3Cl)CC2)cc1 the results were Mtb betalactam 6 and RecA splice inh -7.9.
`COc1ccc(CCNC(=O)C2CCN(S(=O)(=O)c3ccc(Cl)cc3)CC2)cc1OC` gave Mtb betalactam 5, Mtb growth 8%, YopH inh -51, RecA splice inh 6.5 and Arbovirus anti -2.
Screening CCOC(=O)N1CCN(C(=O)C2CC(c3ccc(F)cc3)=NO2)CC1 (stereo not given) returned Mtb betalactam -6, Mtb growth 1%, YopH inh -29, RecA splice inh -0.8, Arbovirus anti 4 and Arbovirus anti repeat 6.
For CCc1noc(C)c1C(=O)Nc1ccc(S(=O)(=O)N2CCC(C)CC2)cc1 the results were Mtb betalactam -7 and RecA splice inh -0.3.
`Cc1ccc(-c2cc(C(=O)O)c3sc(N4CCCCC4)nc3n2)cc1` gave Mtb betalactam 3, Mtb growth 8%, YopH inh -9, RecA splice inh -24 and Arbovirus anti -2.
COc1ccc(CC(=O)Nc2cccc(-c3ccc4nnc(C)n4n3)c2)cc1 was read as Mtb betalactam 0, Mtb growth -4%, RecA splice inh -0.5 and Arbovirus anti -12.
Screening Cc1ccc(S(=O)(=O)Cn2nnnc2C(c2ccccc2)N2CCN(c3ccccc3)CC2)cc1 (stereo not given) returned Mtb betalactam -1, Mtb growth 11%, YopH inh 0, RecA splice inh -0.7 and Arbovirus anti -7.
Screening Cc1ccc(S(=O)(=O)N(C)C)cc1NC(=O)c1n[nH]c(=O)c2ccccc12 returned Mtb betalactam -13, Mtb growth -5% and RecA splice inh -2.4.
Screening Cc1nc2c(-c3ccc(Cl)cc3)cnn2c2c1CCC2 returned Mtb betalactam -2, Mtb growth -4%, RecA splice inh -9.9 and Arbovirus anti 4.
For Cc1ccc(Nc2nnc(SCC(=O)c3ccc(Br)s3)s2)c(C)c1 the results were Mtb betalactam 1, Mtb growth 3%, YopH inh -1, RecA splice inh 6.6 and Arbovirus anti -13.
For COc1ccc(CN(C(=O)c2snc(C(N)=O)c2N)C(C(=O)NC2CCCC2)c2ccc(OC)c(OC)c2)cc1 (stereo not given) the results were Mtb betalactam -1 and RecA splice inh 4.1.
CCN(CC)C(=O)c1cncc(C(=O)N(CC)CC)c1-c1ccccc1 was read as Mtb betalactam -3, Mtb growth -2%, YopH inh -28, RecA splice inh -0.8 and Arbovirus anti 0.
`O=C(COC(=O)CCc1c[nH]c2ccccc12)NC1CCS(=O)(=O)C1` (stereo not given) gave Mtb betalactam 5, Mtb growth -8%, YopH inh -23, RecA splice inh 1.1 and Arbovirus anti 10.
For COc1ccc(S(=O)(=O)NCCN2CCNC2=O)cc1OC the results were Mtb betalactam -3, Mtb growth -3% and RecA splice inh -0.3.
Cc1ccc(Cl)cc1NC(=O)Cn1cccc1 was read as Mtb betalactam 36, Mtb growth 10%, YopH inh -28, RecA splice inh 4.5 and Arbovirus anti 11.
For CC(C)(C)C(=O)Nc1cc(C(F)(F)F)ccc1N1CCOCC1 the results were Mtb betalactam -6, Mtb growth -4%, YopH inh -33 and Arbovirus anti 1.
CCOC(=O)c1c(-c2ccccc2Cl)csc1NC(=O)c1cc(S(=O)(=O)N2CCOCC2)ccc1C was read as Mtb betalactam 1, Mtb growth -2%, YopH inh -26, RecA splice inh 2.4 and Arbovirus anti -3.
`CCS(=O)(=O)n1nc(-c2ccc(Cl)cc2)nc1SCc1ccccc1` gave Mtb betalactam -1, Mtb growth -3%, YopH inh -12, RecA splice inh 9.6 and Arbovirus anti -11.
`COc1cc(/C=N/NC(=O)c2ccoc2C)ccc1OCCN1CCCCC1` gave Mtb betalactam -4 and RecA splice inh -0.7.
COc1ccc2c(c1)N(C)/C(=C/c1cccc[n+]1C)S2 was read as Mtb betalactam -6 and RecA splice inh -1.6.
For CS(=O)(=O)Nc1ccc(C(=O)Nc2ccccc2Cl)cc1 the results were Mtb betalactam 3, Mtb growth -3%, RecA splice inh 0.4 and Arbovirus anti 4.
CC(=O)Nc1cccc(C(=O)OCC(=O)c2ccc3c(c2)OCO3)c1 was read as Mtb betalactam 0 and RecA splice inh 0.0.
Screening CCCOc1ccc(Cc2nn3c(=O)/c(=C/c4ccco4)sc3nc2=O)cc1 returned Mtb betalactam -18, Mtb growth -8%, YopH inh 0, RecA splice inh -3.1 and Arbovirus anti 22.
Screening NC(=S)C1COc2ccccc2O1 (stereo not given) returned Mtb betalactam -13, Mtb growth 3% and RecA splice inh -4.2.

Already shown: an excerpt of the list.
Screening Cc1ccc(S(=O)(=O)Cn2nnnc2C(c2ccccc2)N2CCN(c3ccccc3)CC2)cc1 (stereo not given) returned Mtb betalactam -1, Mtb growth 11%, YopH inh 0, RecA splice inh -0.7 and Arbovirus anti -7.
Screening Cc1ccc(S(=O)(=O)N(C)C)cc1NC(=O)c1n[nH]c(=O)c2ccccc12 returned Mtb betalactam -13, Mtb growth -5% and RecA splice inh -2.4.
Screening Cc1nc2c(-c3ccc(Cl)cc3)cnn2c2c1CCC2 returned Mtb betalactam -2, Mtb growth -4%, RecA splice inh -9.9 and Arbovirus anti 4.
For Cc1ccc(Nc2nnc(SCC(=O)c3ccc(Br)s3)s2)c(C)c1 the results were Mtb betalactam 1, Mtb growth 3%, YopH inh -1, RecA splice inh 6.6 and Arbovirus anti -13.
For COc1ccc(CN(C(=O)c2snc(C(N)=O)c2N)C(C(=O)NC2CCCC2)c2ccc(OC)c(OC)c2)cc1 (stereo not given) the results were Mtb betalactam -1 and RecA splice inh 4.1.
CCN(CC)C(=O)c1cncc(C(=O)N(CC)CC)c1-c1ccccc1 was read as Mtb betalactam -3, Mtb growth -2%, YopH inh -28, RecA splice inh -0.8 and Arbovirus anti 0.
`O=C(COC(=O)CCc1c[nH]c2ccccc12)NC1CCS(=O)(=O)C1` (stereo not given) gave Mtb betalactam 5, Mtb growth -8%, YopH inh -23, RecA splice inh 1.1 and Arbovirus anti 10.
For COc1ccc(S(=O)(=O)NCCN2CCNC2=O)cc1OC the results were Mtb betalactam -3, Mtb growth -3% and RecA splice inh -0.3.

Screening results (PubChem BioAssay)

The list is partial; rates above refer to the full screens.
